Assay outcomes from PubChem BioAssay.
OX1R antag-1 – OX1R (human) antagonism | O43613 | OX1R-expressing cells, FRET antagonist read-out | inhibition, % at 6.6 µM | 330,000 compounds, 1.8% hits | AID 485270; in the data active means inhibition mostly above about 38%, no sharp cut-off; inactive means mostly below about 40%;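 further: 0% = agonist challenge alone and 100% = reference antagonist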
Target sequence (O43613 whole entry, looked up): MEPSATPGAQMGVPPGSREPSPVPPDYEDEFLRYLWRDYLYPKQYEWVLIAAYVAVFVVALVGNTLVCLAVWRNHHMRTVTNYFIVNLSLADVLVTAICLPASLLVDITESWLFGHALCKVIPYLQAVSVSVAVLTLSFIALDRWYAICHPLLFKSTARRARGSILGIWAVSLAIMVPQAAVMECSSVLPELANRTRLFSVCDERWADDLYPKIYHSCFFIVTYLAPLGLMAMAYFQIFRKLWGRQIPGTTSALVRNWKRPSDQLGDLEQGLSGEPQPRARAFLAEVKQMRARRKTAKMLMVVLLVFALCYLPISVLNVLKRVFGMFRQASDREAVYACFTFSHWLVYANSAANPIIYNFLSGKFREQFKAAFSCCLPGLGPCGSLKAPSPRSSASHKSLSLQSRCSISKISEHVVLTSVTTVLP
OX1R antag-2 – human HCRTR1 antagonism; O43613; CHO/OX1R cells, Fluo-8 calcium fluorescence, orexin A; inhibition, % at 5 µM; 330,000 compounds, 0.43% hits; AID 434989;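 active means inhibition above its plate's threshold, mean inhibition of all tested compounds on the plate plus 3 SD, cut at about 37% in these data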;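 further: 0% = orexin A challenge wells and 100% = SB-334867-A antagonist wells; not every result past the cut was called active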
Active calls of the source: *. Only part of the results is shown, and most or all hits are left out here.

SMILES	OX1R antag-1	OX1R antag-2
O=C(NC1CCN(C(=O)Nc2cccc(F)c2)CC1)C1CCCCC1	19	-7
OCCC1CN(Cc2ccc(Oc3ncccn3)cc2)CCN1Cc1ccc(F)c(F)c1 (stereo not given)	10	-22
O=C(COc1coc(CN2CCN(c3ccccc3)CC2)cc1=O)N1CCc2ccccc21	19	-5
COc1ccc(CC(=O)Nc2ccccc2N2CCCC2)cc1	3	-8
CC1CCN(C(=O)c2ccc(S(=O)(=O)Cc3ccccc3F)c([N+](=O)[O-])c2)CC1	26	-36
Cc1csc(NC(=O)CS(=O)(=O)Cc2ccccc2)n1	3	0
CCCCNC(=O)CNC(=S)N(Cc1ccccc1)Cc1cccnc1	7	-4
COCCCn1c(SCC(=O)NCc2ccco2)nc2sc3c(c2c1=O)CCC3	10	-42
CCOC(=O)c1ccc2c(c1)n(CC)c(C)[n+]2CC	7	-5
COc1ccc(S(=O)(=O)Nc2ccccc2C(=O)N2CCCC2)cc1OC	16	-10
CCN1CCN(Cc2ccc(NC(=O)c3cc(NC(=O)c4cc(C)on4)cc(OC)c3)cc2C(F)(F)F)CC1	24	-16
O=C(c1ccc(F)cc1)N(Cc1ccccc1)C1CCS(=O)(=O)C1 (stereo not given)	16	-14
Clc1cccc(OCCCN2CCCC2)c1Cl	9	-17
O=[N+]([O-])c1nn(-c2ccc3c(c2)OCCO3)n(O)c1=NC1CCCCC1	48	-31
Cc1ccc(CN2CCN(Cc3nc4ccccc4nc3C)CC2CCO)cc1 (stereo not given)	12	-19
O=C(CN(c1ccccc1)S(=O)(=O)c1ccccc1)N/N=C/c1ccco1	0	-23
CCCCC[C@H]1CN(CCCC)C(=O)[C@@H]1CC(=O)NCc1ccc(OC)cc1	15	-32
O=C(NCC1CCCO1)c1ccc(N2C(=O)C3CCCCC3C2=O)cc1 (stereo not given)	7	-18
O=C(COc1ccc2c3c(c(=O)oc2c1)CCC3)NC1CCN(Cc2ccccc2)CC1	5	-20
CCOc1ccccc1N(C(=O)c1ccccc1Cl)C1=NC(C)(C)CS1	23	-32
CCOC(=O)C1=C(CC)NC2=C(C(=O)CCC2)C1c1ccc(OC)c(OC)c1 (stereo not given)	12	-22
O=C(O)c1ccccc1C(=O)Nc1ccc(S(=O)(=O)N2CCCC2)cc1	17	-15
Cc1ccc(C(=O)CCC(=O)Nc2cccc(C(F)(F)F)c2)cc1	12	-23
Cc1ccccc1C(=O)Nc1ccnn1C1CCN(C(C)Cc2ccccc2F)CC1 (stereo not given)	2	-31
COc1ccc(-c2cn(CCC(=O)NCc3ccc(C)cc3)c(-c3ccncc3)n2)cc1	20	-21
Cc1ccc2c(n1)sc1c(-c3ccc(Br)cc3)c(C#N)c(N)nc12	32	-19
O=C(NCC12CC3CC(CC(C3)C1)C2)c1nc2ncccn2n1	0	-3
Cc1c(C(=O)Nc2ccccn2)oc2ccc(Br)cc12	12	-20
O=C(COC(=O)C1(c2ccccc2)CC1)NNC(=O)c1ccccc1	6	-1
COc1ccc(N(CC(=O)N/N=C(\C)c2ccc(OC)c(OC)c2)S(=O)(=O)c2ccccc2)cc1	4	-46
CC(=O)N1c2ccc(S(=O)(=O)N3CCC(C(=O)NC4CCCCC4C)CC3)cc2CC1C (stereo not given)	15	-29
Cc1c(NC(=S)NC(=O)c2cccc(Br)c2)c(=O)n(-c2ccccc2)n1C	4	-26
O=C(OC(C(=O)NCc1cccs1)c1ccc(F)cc1)c1ccco1 (stereo not given)	12	-16
O=C(NC1CCCC1)c1cc2nc(-c3ccco3)cc(C(F)(F)F)n2n1	16	-8
COc1cc(/C=C/C(=O)OCC(=O)N(C)C2CCS(=O)(=O)C2)ccc1OC(F)F (stereo not given)	23	-23
Cc1ccc(NC(=O)C2=C(O)c3sccc3N(C)S2(=O)=O)cc1	22	-7

Full records from above.
Shown for `O=C(c1ccc(F)cc1)N(Cc1ccccc1)C1CCS(=O)(=O)C1` (stereo not given) → OX1R antag-1 = 16; OX1R antag-2 = -14
Shown for `COc1ccc(-c2cn(CCC(=O)NCc3ccc(C)cc3)c(-c3ccncc3)n2)cc1` → OX1R antag-1 = 20; OX1R antag-2 = -21
Shown for `COc1ccc(CC(=O)Nc2ccccc2N2CCCC2)cc1` → OX1R antag-1 = 3; OX1R antag-2 = -8

Other compounds:
SMILES	OX1R antag-1	OX1R antag-2
Cc1nn2c(N3CCN(C4CCCC4)CC3)cc(C(C)(C)C)nc2c1-c1ccccc1	10	-28
CN(C(=O)COc1ccc(Br)cc1Cl)C1CCCCC1	15	-34
CSc1nc(N2CCN(Cc3ccc4c(c3)OCO4)CC2)c2ccccc2n1	1	-57
CCC(CC)c1nnc(NC(=O)c2ccc3c(c2)OCO3)s1	14	-15
COc1ccc(S(=O)(=O)CCC(=O)NCCc2ccc(Cl)cc2)cc1	11	-33
CCCOc1ccc(CSc2ncn[nH]2)cc1	1	-13
CNC(=O)NC(=O)CSc1ncc(C(F)(F)F)cc1Cl	10	-12
C=CCn1c(SCC(=O)NC(=O)c2cccc([N+](=O)[O-])c2)nnc1-c1ccccc1	55	-12
Cc1ccc(S(=O)(=O)/N=C(\c2ccc(Cl)cc2)N2CCOCC2)cc1	2	-20
C[n+]1ccccc1C1CCCC/C1=N\Nc1ccc([N+](=O)[O-])cc1[N+](=O)[O-] (stereo not given)	93*	-7
OCC1(CCc2ccccc2)CCN(Cc2cccn2-c2cccnc2)CC1	23	-13
O=C(NCc1nc2ccccc2[nH]1)C1=C[C@@H](c2ccc(C(F)(F)F)cc2)C[C@@H](OCCCCO)O1	10	-37
Cc1cc(C(=O)CCl)c(C)n1Cc1ccco1	1	-1
COc1cccc(CN2C(=O)[C@@H]3Cc4c([nH]c5ccccc45)C(C)(C)N3C2=O)c1	11	-1
Cc1ccc(N2C(=O)[C@@H]3[C@H](C2=O)[C@H]2C=C(C(=O)c4ccccc4)C=CN2[C@@H]3C(=O)c2ccc(Cl)cc2)cc1	2	3
CS(=O)(=O)N1CCC(C(=O)c2cccc(Cl)c2)CC1	6	-10
Cc1cc(C)cc(NC(=O)CSCc2cnn(-c3ccccc3)c2-n2cccc2)c1	68	5
C[C@H](Cc1ccccc1)Nc1ncnc2c1ncn2[C@@H]1O[C@H](CO)[C@@H](O)[C@H]1O	20	1
O=C(COc1ncnc2sccc12)N1CCN(S(=O)(=O)c2ccc(Cl)cc2)CC1	12	-13
COCc1ccc2oc(C(=O)O)cc2c1	-2	-4
CCOC(=O)N1CCN(C(=O)CN2C(=O)COc3ccc(C)cc32)CC1	10	-10
COc1ccc(C(C)(C)C)cc1NC(=O)CCCn1c(=O)oc2ccccc21	23	-17
Cc1ccc(C)c(NC(=S)N2CCCCC2CO)c1 (stereo not given)	6	-17
CCOC(=O)N1CCN(C(=O)c2ccc([N+](=O)[O-])cc2Cl)CC1	27	-5
Cc1cc(-c2ccc(C)c(S(=O)(=O)NCC3CCN(Cc4cccc(F)c4)CC3)c2)on1	19	-34
CC(C)(C)C(=O)OCc1cn(-c2ccc(Cl)cc2)nn1	7	-12
CC1C=CCC2C(=O)N(c3cc(Cl)ccc3O)C(=O)C12 (stereo not given)	2	-16
CCCc1cc(-n2ccnc2)n2c(nc3ccccc32)c1C#N	50	-2
Cc1ccc(-c2nc(-c3nccc4ccccc34)oc2-c2ccccc2)cc1	-4	-9
CCCCN(CC)S(=O)(=O)c1ccc(C(=O)N=c2sc3cc(NC(C)=O)ccc3n2C)cc1	15	-11
CN(C(=O)CCn1c(=S)oc2ccccc21)c1ccc(F)cc1	13	-18
CC(NC(=O)CC(c1ccccc1)c1cc(Cl)ccc1O)c1ccccc1 (stereo not given)	20	-11
Cc1ccc(N(C(=O)Cn2nnc3ccccc32)C(C(=O)NCc2ccccc2)c2ccccn2)cc1 (stereo not given)	11	-24
CCN(CC)CCNc1nc2ccccc2n1C	16	-5
N#CC1(NC(=O)COC(=O)c2cccc(-n3cnnn3)c2)CCCCC1	13	-5
O=C(NCc1ccccc1)OCCN1CCN(Cc2ccccc2)CCC1=O	3	-31
CN(C)c1ccc(C(=O)Nc2nnc(-c3ccc(Cl)cc3)o2)cc1	13	-11
Cc1nnc(SCc2ccccc2)nc1-c1ccccc1	23	-35
CCN(CC)S(=O)(=O)c1ccc(N(C)Cc2cccnc2)nc1	5	-12
Fc1ccc(CNC(=S)Nc2ccccc2Cl)cc1	17	-6
NS(=O)(=O)c1ccc(NC(=S)NNC(=O)c2cccs2)cc1	9	-5
CCOC(=O)N1CCN(c2c(NC3CCN(Cc4ccccc4)CC3)c(=O)c2=O)CC1	6	-16
CC1CCC(NC(=O)C(Cc2ccccc2)n2cccc2)CC1 (stereo not given)	17	-31
CCOC(=O)c1[nH]c2ccc(OCC)cc2c1NC(=O)CN1CCN(c2ccccc2)CC1	2	-6
CCC(=O)N1N=C(c2c(O)n(C)c(=O)n(C)c2=O)CC1c1ccccc1 (stereo not given)	12	5
CCCCn1ccnc1C(=O)c1cccc(S(=O)(=O)N2c3ccccc3CC2C)c1 (stereo not given)	27	2
CCOC(=O)c1ccc(C(=O)NNC(=O)C2CC=CCC2)cc1 (stereo not given)	7	-10
COCCn1cnc2c1c(=O)n(Cc1c(F)cccc1Cl)c(=O)n2Cc1ccccc1	4	-31
CCn1cc(C(=O)O)c(=O)c2cc(S(=O)(=O)N(C)C)ccc21	4	2
COc1cc(C=O)ccc1Oc1nnnn1-c1ccccc1	3	-7
COC(=O)C1C2C=CC3(CN(C(C)C)C(=O)C13)O2 (stereo not given)	14	4
CCOC(=O)Cn1c(=NC(=O)CN2C(=O)CCC2=O)sc2cc(S(N)(=O)=O)ccc21	13	17
Cc1[nH]c2ccc(C(=O)NCCCN3CCCCCC3)cc2c1C	14	-8
Cc1ccc(Cl)cc1NC(=O)C1CC(=O)Nc2ncnn21 (stereo not given)	3	-8
CCC1(CC)NC(=O)N(CC(=O)OCC(=O)Nc2ccc(F)c(F)c2F)C1=O	-4	5
CCOC(=O)N1CCN(C(=O)CCCn2c(=S)[nH]c3ccccc3c2=O)CC1	14	-28
Nc1c2c(nc3sc4c(c13)CCCCC4)CCCCC2	41	-28
COc1cccc(Nc2nc3ccc(OC)cc3s2)c1	23	-23
CC(C)(C)NC(=O)c1cc(F)c(F)cc1Cl	13	-8
CCOc1ccc(NC(=O)CN(C)C(=O)c2ccc(N3CCOCC3)c([N+](=O)[O-])c2)cc1OCC	5	-1

Going on with the list.
SMILES	OX1R antag-1	OX1R antag-2
COc1ccc(N(CC(=O)O)S(=O)(=O)c2ccc(OC)c(OC)c2)cc1	15	-10
CN(C)c1ccc(NC2=C([N+](=O)[O-])CS(=O)(=O)C2)cc1	12	-14
O=C(N/N=C1/CCCc2ccccc21)c1cc([N+](=O)[O-])cc([N+](=O)[O-])c1	63	-11
Cc1cc(C)cc(NC(=O)C2CC(=O)n3ncnc3N2)c1 (stereo not given)	2	2
CC(C)CC1=NN(C(=O)c2cccnc2)C(O)(C(F)(F)F)C1 (stereo not given)	3	-15
O=C(COC(=O)CNC(=O)c1ccccc1)Nc1ccc2c(c1)OCO2	11	-7
Cc1ccc(-n2ncc3c(N4CCC5(CC4)OCCO5)ncnc32)c(C)c1	21	-10
C[N+]1(CC(=O)Nc2ccccc2Cl)CCN(C(=O)c2cccs2)CC1	13	-15
Cc1cc(NC(=O)C2C3C(=O)N(Cc4ccc(Cl)cc4)C(C(=O)NC4CCCCC4)C34C=CC2(C)O4)no1 (stereo not given)	41	-6
CCCCOC(=O)Nc1ccc(S(=O)(=O)Nc2ncccn2)cc1	3	-31
COc1ccc(NC(=O)CCCn2c(=O)c3sccc3n(Cc3ccccc3)c2=O)cc1	22	-16
Cc1cc(C)c(OCC(=O)OCC(=O)N2c3ccccc3CC2C)c(C)c1 (stereo not given)	10	-24
CCC(C)(C)NC(=O)C(OC(=O)c1ccco1)c1ccccc1F (stereo not given)	0	-28
O=C(NCCCN1CCOCC1)c1csc2c1CCCC2	2	-8
Cc1occc1C(=O)NNC(=O)c1ccccc1C(=O)O	26	-17

Structural class, the compounds so far with an aryl methoxy group (15)
SMILES	OX1R antag-1	OX1R antag-2
COc1ccc(CC(=O)Nc2ccccc2N2CCCC2)cc1	3	-8
COc1ccc(S(=O)(=O)Nc2ccccc2C(=O)N2CCCC2)cc1OC	16	-10
CCN1CCN(Cc2ccc(NC(=O)c3cc(NC(=O)c4cc(C)on4)cc(OC)c3)cc2C(F)(F)F)CC1	24	-16
CCCCC[C@H]1CN(CCCC)C(=O)[C@@H]1CC(=O)NCc1ccc(OC)cc1	15	-32
CCOC(=O)C1=C(CC)NC2=C(C(=O)CCC2)C1c1ccc(OC)c(OC)c1 (stereo not given)	12	-22
COc1ccc(-c2cn(CCC(=O)NCc3ccc(C)cc3)c(-c3ccncc3)n2)cc1	20	-21
COc1ccc(N(CC(=O)N/N=C(\C)c2ccc(OC)c(OC)c2)S(=O)(=O)c2ccccc2)cc1	4	-46
COc1cc(/C=C/C(=O)OCC(=O)N(C)C2CCS(=O)(=O)C2)ccc1OC(F)F (stereo not given)	23	-23
COc1ccc(S(=O)(=O)CCC(=O)NCCc2ccc(Cl)cc2)cc1	11	-33
COc1cccc(CN2C(=O)[C@@H]3Cc4c([nH]c5ccccc45)C(C)(C)N3C2=O)c1	11	-1
COc1ccc(C(C)(C)C)cc1NC(=O)CCCn1c(=O)oc2ccccc21	23	-17
COc1cc(C=O)ccc1Oc1nnnn1-c1ccccc1	3	-7
COc1cccc(Nc2nc3ccc(OC)cc3s2)c1	23	-23
COc1ccc(N(CC(=O)O)S(=O)(=O)c2ccc(OC)c(OC)c2)cc1	15	-10
COc1ccc(NC(=O)CCCn2c(=O)c3sccc3n(Cc3ccccc3)c2=O)cc1	22	-16
